NPYLR7 agonist: mosquito NPYLR7 agonism; activation, % at 10 µM; AID 1259423; 270,000 tested, 0.15% active; HEK293T NPYLR7/Galpha15, GCaMP6s calcium fluorescence; in the data active = activation above about 40%;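 note: 0% = vehicle and 100% = reference agonist at the receptor; some compounds past the cut are filed as inactive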
NPYLR7 agonist max-min: second read-out of NPYLR7 agonist, no call of its own (marks repeat the call); activation, %; measured here: Max-Min RFU normalised activation; some inactives read as strong as hits;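 span of the calcium signal over five minutes; 0% = vehicle and 100% = native peptide agonist; compound fluorescence can raise it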
Active calls of the source: *; & = joins results of further samples.

SMILES	NPYLR7 agonist	NPYLR7 agonist max-min
FC(F)(F)c1nc2n(n1)C(c1ccc(Cl)cc1)C1COc3ccccc3C1=N2 (configuration not stated)	5	8
CCCNC(=O)C1CN(Cc2nc(-c3ccsc3)no2)c2ccccc2O1 (configuration not stated)	-5	-4
CCN(CC)S(=O)(=O)c1ccc2[nH]c(=O)cc(C(=O)OC(C)C(=O)c3c[nH]c4ccccc34)c2c1 (configuration not stated)	18	23
CCOc1ccc(Nc2ncnc3c2nnn3C)cc1	10	2
CCc1[nH]n(-c2ccc(OC)cc2)c(=O)c1C1=C(N2CCCC2)C(=O)N(c2cccc(C)c2)C1=O	28	34
COc1ccccc1C1c2[nH]c3ccccc3c2CCN1C(=O)c1c2c(nn1C)CCCC2 (configuration not stated)	4&0	-3&-2
Oc1c(/C=N\Nc2ccc3c(Cl)cc(Cl)c(O)c3n2)cc2c3c1CCCN3CCC2	10	20
Cc1cc(CN2CCCC(CCC(=O)NC3CC3)C2)oc1C (configuration not stated)	11	11
Cc1noc(C)c1COc1cccc(C(=O)NC(C)(C)C)c1	4	4
CC(=O)Nc1ccc(S(=O)(=O)Oc2ccc(CN(CC(C)C)C(=O)NC(C)C)cc2)cc1	3	6
CN1CCC(N(C)C(=O)c2cc3ccc(F)cc3[nH]2)CC1	0	-2
O=C(O)CN1C(=O)/C(=C\c2cccc(Cl)c2Cl)SC1=S	-4	-9
CCCCN(C(=O)/C=C/c1ccc([N+](=O)[O-])cc1)C(CC)c1nc2ccccc2c(=O)n1-c1ccccc1OC (configuration not stated)	-5	-3
COc1cc(Cn2ccnc2-c2sccc2C)cc(OC)c1OC	10	-9
CN1C(=O)NC(c2ccc(F)cc2)C2=C1CN(CC(=O)NC1CC3CCC1C3)C2=O (configuration not stated)	-1	10
O=C(c1cccc(Cl)c1Cl)N1CCC(n2c(=O)oc3ccc(Cl)cc32)CC1	5	-1
Cc1nc2sc3c(c2c2ncnn12)CC(C)(C)OC3	1	0
O=C(N=Nc1c(O)[nH]c2ccc(Br)cc12)c1cnc2ccccc2c1	-2	-8
O=C(NCC1CCN(C2CCOCC2)C1)Nc1ccccc1Cl (configuration not stated)	-1	-3
COc1ccc(C)c2sc(N(CCN(C)C)C(=O)CCS(=O)(=O)c3ccc(C)cc3)nc12	-3	-7
O=C(Cn1nnc2sc3c(c2c1=O)CCCC3)N1CCOCC1	-1	-5
Cc1ccc(-n2nnc3c(=O)n(Cc4ccccc4C)cnc32)cc1Cl	2	-4
COc1ccc(C)cc1NC(=O)COc1ccc(F)c(F)c1	1	-2
COc1ccc(C(=O)Nc2nccs2)cc1S(=O)(=O)N1CCOCC1	-10	-14
O=C(c1cn[nH]n1)N1CCC(c2cc(Cc3ccccc3)[nH]n2)CC1	-1	7
CCOC(=O)N1CCN(Cc2ccc3c(c2)CN(C(=O)c2cc(-c4ccccc4)on2)CCO3)CC1	7	3
CCNC(=O)NC1CCN(C(=O)CC(C)C)CC1	3	1
COCCCN(Cc1ccc(C)o1)Cc1ccc(C(O)(c2ccccc2)c2ccccc2)o1	-2	8
Brc1ccc2nc(N3CCc4ccccc4C3)sc2c1	4	-2
NC(=O)Nc1ccc(NS(=O)(=O)c2cc(F)ccc2Cl)cc1	14	16

A few values from above.
COc1ccc(C)cc1NC(=O)COc1ccc(F)c(F)c1 in NPYLR7 agonist max-min reads -2
O=C(NCC1CCN(C2CCOCC2)C1)Nc1ccccc1Cl (configuration not stated) in NPYLR7 agonist reads -1
O=C(N=Nc1c(O)[nH]c2ccc(Br)cc12)c1cnc2ccccc2c1 in NPYLR7 agonist reads -2
COc1ccc(C(=O)Nc2nccs2)cc1S(=O)(=O)N1CCOCC1 in NPYLR7 agonist reads -10
CCNC(=O)NC1CCN(C(=O)CC(C)C)CC1 in NPYLR7 agonist reads 3
O=C(c1cn[nH]n1)N1CCC(c2cc(Cc3ccccc3)[nH]n2)CC1 in NPYLR7 agonist max-min reads 7
NC(=O)Nc1ccc(NS(=O)(=O)c2cc(F)ccc2Cl)cc1 in NPYLR7 agonist reads 14

(list continues)
SMILES	NPYLR7 agonist	NPYLR7 agonist max-min
COc1cc(OC)cc(-c2onc(C)c2C(=O)NCc2ccco2)c1	4	5
Cc1onc(-c2ccccc2Cl)c1C(=O)NCCSC1Sc2ccccc2NC1=O (configuration not stated)	-8	-10
CN(Cc1ccco1)C(=O)C(C1CCCC1)N1CCN(C(=O)c2ccc(Cl)c(Cl)c2)CC1 (configuration not stated)	-4	31
COCCOc1nc(-c2ccc(C(F)(F)F)cc2)n(-c2ccc(NC(=O)c3ccc(C)cc3)cc2)n1	6	6
CC(NC(=O)c1cccc(CS(C)(=O)=O)c1)c1ccccc1Cl (configuration not stated)	-3	-2
Cc1ccccc1OCCn1cnc2cc(F)ccc2c1=O	11	9
O=C(C1CCCN(c2ncnc3c2nc2n3CCCCC2)C1)N1CCC(N2CCCCC2)CC1 (configuration not stated)	2	-1
O=C(c1cnn(Cc2ccccc2)c1)N1CCC(O)(c2ccccc2)CC1	2	11
Fc1ccc(C2c3cccn3CCCN2Cc2ccc3c(c2)OCCO3)c(F)c1 (configuration not stated)	28	32
CC(C)NC(=O)N(Cc1ccc(F)cc1F)CC1CC(c2ccc(Cl)o2)=NO1 (configuration not stated)	31	32
CS(=O)(=O)NCC1CCOC1c1ccccc1 (configuration not stated)	0	-5
COc1cccc(/C=C2/SC(=Nc3ccccc3)NC2=O)c1O	-2	-5
CCCCCCCCC(=O)N1CCN(c2nc(-c3ccc(C)cc3)nc(C)c2C)CC1	-3	7
Cc1csc(C(C#N)C(=O)C=C2CCC(C)C2)n1 (configuration not stated)	4	2
COc1ncc(CN2CCC(c3[nH]ncc3-c3cccc(F)c3)CC2)cn1	29	21
CC(C)n1nccc1N=C1N=C(N)c2ccccc21	5	4
O=C1OC(CNS(=O)(=O)c2cccnc2)CN1c1ccc2c(c1)OCO2 (configuration not stated)	7	8
Cc1nn(CC(=O)N2C(C)CCCC2C)c(C)c1[N+](=O)[O-] (configuration not stated)	-5	-8
CCOC(=O)CCc1c(C)nc2ncnn2c1N1CCN(C(=O)Cc2ccc(Cl)cc2)CC1	23	11
CCc1nc2c(s1)C(OC(=O)c1ncoc1C1CCCO1)CCC2 (configuration not stated)	4	2
O=c1cc2[nH]n(-c3ccccc3)c(=O)c2cn1Cc1ccccc1	-3	-4
Cc1ccc(S(=O)(=O)N2CCCN(C(=O)CCN3CCSC3=O)CC2)cc1	10	7
Cc1ccsc1S(=O)(=O)N1CCCC(N(C)CCCN(C)C)C1 (configuration not stated)	18	7
c1ccc(CCc2cn(CCc3ccncc3)nn2)cc1	-2	-7
CC(C)c1ccc(-c2c(N3c4ccccc4CC3C)c(=O)c2=O)cc1 (configuration not stated)	12	10
COc1ccc(S(=O)(=O)NCCc2csc3nc(-c4ccc(Cl)cc4)nn23)cc1F	-6	-7
O=c1c2cc(O)ccc2oc2ccc(O)cc12	5	3
CCOc1cc2c(cc1C=C1SC(=S)N(CCCN3CCOCC3)C1=O)OC(C)C2 (configuration not stated)	7	5
COc1ccc(-n2nnc3c(N4CCN(C(=O)c5ccccc5C(F)(F)F)CC4)ncnc32)cc1	-20	-29
CCOC(=O)C(C#N)=Cc1cc(Cl)c(OC)c(OC)c1	1	1
Cc1cc(Br)ccc1NC(=O)CNC(=O)CCc1cccs1	-8	-11
CCCCCCn1c(N2CCOCC2)nc2c1c(=O)n(C)c(=O)n2C	18	7
Cc1nc2cc(OCc3cc(C(=O)NCc4cc(F)ccc4C)no3)ccc2s1	18	8
CC(=O)c1c(C)nn(C(=O)N2CCOCC2)c1C	18	7
CCCCc1cnc2c(c1SCC(=O)Nc1ccccc1C(=O)OCC)c(=O)n(C)c(=O)n2C	8	14
COc1ccc(S(=O)(=O)N(CC(=O)Nc2cccc(C(F)(F)F)c2)c2ccc(C)cc2)cc1OC	-16	-6
O=C(NCC(CO)Cc1ccco1)Nc1ccccc1F (configuration not stated)	-3	-6
c1ccc(CC2CN(Cc3cccc(Cn4cccn4)c3)CCO2)cc1 (configuration not stated)	5	2
CSCc1noc(CNS(=O)(=O)NCc2ccccc2)n1	5	2
COc1ccc(OC2CCN(C(=O)C3CC3)CC2)c(C(=O)NCc2cccc3[nH]ccc23)c1	19	7
O=C(NC1CC1)C1CCCN(S(=O)(=O)N2CCCCCC2)C1 (configuration not stated)	26	10
Cc1nc(SCc2cccc(C(=O)NCc3cccnc3)c2)nc(N(C)Cc2ccccc2)c1C	5	14
Cn1ccc(C(=O)Nc2ccnn2-c2cccc(Cl)c2)cc1=O	-3	-3
COc1ccc(-c2ccc(OCCNS(=O)(=O)c3ccc(Oc4ccccc4)cc3)nn2)cc1	-7	-11
Cc1cccc(NC(=O)CC(=O)NCCN2CCCC(O)C2)c1C (configuration not stated)	-8	-10
Cc1onc(-c2c(Cl)cccc2Cl)c1C(=O)N[C@H](c1nnc2c(C(F)(F)F)cccn12)C(C)C	-8	-12
COc1ccccc1-c1nc2cc(C)ccn2c1NC(=O)c1ccc2ccccc2c1	-11	-1
CN(CCC=C1c2ccccc2CCc2ccccc21)S(=O)(=O)c1cccc(Cl)c1	-2	-3
Cc1ccccc1NC(=O)c1cccnc1NC(C)C	-11	-18
C=CCn1c(C)cc(C(=O)CSc2nnc(COc3ccccc3Cl)o2)c1C	8	7
Cc1oc(-c2cc(F)cc(F)c2)nc1CN1CCCCC1c1nccs1 (configuration not stated)	-4	-4
COc1ccc(C2=NN(C(=O)CN3CCc4ccccc4C3)C(c3ccc4c(c3)OCO4)C2)c(OC)c1 (configuration not stated)	24	20
O=C(NN=Cc1ccc(O)cc1)c1cccnc1	-1	-5
Cc1cnccc1N1CCCN(Cc2cc(C(C)C)no2)CC1	2	-1
CCCC(=O)OCC(O)CN(CCC(C)C)Cc1cccn1Cc1ccc(C(C)(C)C)cc1 (configuration not stated)	-2	3
COc1ccc(Cc2nnc3n2N(C(C)=O)C(c2ccc(Cl)c(Cl)c2)=C(C(C)=O)S3)cc1	1	-3
COc1cccc(SCC(=O)N2C[C@@H]3[C@H](C2)[C@H]2CC[C@@H]3O2)c1	10	4
Cc1ccc(C=NCC(O)COCc2ccco2)o1 (configuration not stated)	0	-3
O=C(CCn1cncn1)N1CCC(n2cc(-c3ccccn3)nn2)CC1	3	4
CC(=O)c1cccc2c1OC(C)C(=O)N2Cc1cccc(C(F)(F)F)c1 (configuration not stated)	-7	-7

The list goes on; it opens with the four that closed the last part.
SMILES	NPYLR7 agonist	NPYLR7 agonist max-min
COc1cccc(SCC(=O)N2C[C@@H]3[C@H](C2)[C@H]2CC[C@@H]3O2)c1	10	4
Cc1ccc(C=NCC(O)COCc2ccco2)o1 (configuration not stated)	0	-3
O=C(CCn1cncn1)N1CCC(n2cc(-c3ccccn3)nn2)CC1	3	4
CC(=O)c1cccc2c1OC(C)C(=O)N2Cc1cccc(C(F)(F)F)c1 (configuration not stated)	-7	-7
CCCCCCCC(=O)Nc1c(-c2ccc(OC)cc2)nc2ccc(C)cn12	-2	0
CCCCOc1ccccc1C1Nc2ccccc2N=C2CC(c3ccccc3)CC(=O)C21 (configuration not stated)	-10	-14
Cc1cc(Cl)cc(Cl)c1CNC(=O)c1cncn1-c1cccc(-c2ccc(Oc3ccccc3)cc2)c1	11	9
O=c1c2c3c(sc2ncn1CC(O)COc1cccc(Br)c1)CCCC3 (configuration not stated)	-2	-4
COc1cccc(CNC(=O)CCc2ccc(-c3ccc(C)cc3C)n2-c2ccc(CC#N)cc2)c1	-1	-1
COc1ccc2o/c(=N\NC(N)=S)c(-c3nc4ccccc4[nH]3)cc2c1	-2	-11
CCOC(=O)C1CCN(C(=O)Cc2csc(NC(=O)CN(C(=O)c3ccc(Cl)c(Cl)c3)C(C)C)n2)CC1	10	12
Cc1cccc(NC(=O)c2cc3ccccc3oc2=N)c1	-7	-10
Cc1cc(C)c2[nH]c(=O)c(CN3CCOC4(CNCCOC4)C3)cc2c1 (configuration not stated)	11	9
O=C(Oc1coc(CSc2ncccn2)cc1=O)C1CC(=O)N(c2ccccc2)C1 (configuration not stated)	-4	4
N#Cc1ccc(/C=C2\SCCc3ccccc3C2=O)cc1	3	-2
CCOc1ccccc1N1CCN(C(=O)c2cc(-c3ccccc3OC)n3nc(C(C)(C)C)cc3n2)CC1	19&-12	21&-11
CCc1nc2ccc(C(=O)NC(C)(C)C)cn2c1N(CC)CC(=O)N(C)C	13	10
COCC(=O)N1CCC(C(NC(=O)c2cccc(OC)c2)C(=O)N2CCCC2)CC1 (configuration not stated)	9	8
Cc1cc(C)n(CCNC(=O)c2cc(CC(C)C)[nH]n2)c(=O)n1	-10	-10
COc1ccc(CCN(C)c2cc(Cl)nc(SCC(=O)NCCN3CCCCC3)n2)cc1OC	-1	4

In the list so far, 6 contain a CF3 group:
SMILES	NPYLR7 agonist	NPYLR7 agonist max-min
FC(F)(F)c1nc2n(n1)C(c1ccc(Cl)cc1)C1COc3ccccc3C1=N2 (configuration not stated)	5	8
COCCOc1nc(-c2ccc(C(F)(F)F)cc2)n(-c2ccc(NC(=O)c3ccc(C)cc3)cc2)n1	6	6
COc1ccc(-n2nnc3c(N4CCN(C(=O)c5ccccc5C(F)(F)F)CC4)ncnc32)cc1	-20	-29
COc1ccc(S(=O)(=O)N(CC(=O)Nc2cccc(C(F)(F)F)c2)c2ccc(C)cc2)cc1OC	-16	-6
Cc1onc(-c2c(Cl)cccc2Cl)c1C(=O)N[C@H](c1nnc2c(C(F)(F)F)cccn12)C(C)C	-8	-12
CC(=O)c1cccc2c1OC(C)C(=O)N2Cc1cccc(C(F)(F)F)c1 (configuration not stated)	-7	-7

Assay outcomes as filed in PubChem BioAssay.

Not all compounds are listed (hit frequency here may not be typical).
